FGF22 binding – shifts melting point of recombinant human FGF22 | Q9HCT0 | recombinant FGF22 thermal shift, SYPRO orange fluorescence; percent of sucrose octasulfate shift, DMSO zero | calls only at 9.99 µM | 340,000 compounds, 1.5% hits | AID 651658;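 active = melting point raised past a set limit in the mean and every replicate; three in four hits are not shown here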
Target sequence (Q9HCT0 whole entry, looked up): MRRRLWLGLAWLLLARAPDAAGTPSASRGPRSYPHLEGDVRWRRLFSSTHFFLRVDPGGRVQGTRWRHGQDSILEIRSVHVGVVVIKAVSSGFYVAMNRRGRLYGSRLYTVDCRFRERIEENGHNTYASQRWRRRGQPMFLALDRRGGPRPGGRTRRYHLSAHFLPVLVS
Calls only; i = inactive.

FGF22 binding	Structure
i	C[C@H]1CCCCO[C@H](CN(C)C(=O)NC2CCCCC2)[C@@H](C)CN([C@@H](C)CO)C(=O)c2cc(NC(=O)CCC(F)(F)F)ccc2O1
i	CO[C@H]1CN(C)C(=O)c2ccc(NC(=O)c3cc(C)on3)cc2OC[C@H](C)N(CC2CC2)C[C@H]1C
i	COc1ccc(S(=O)(=O)N(C)C[C@H]2Oc3ccc(NC(=O)Nc4ccc5c(c4)OCO5)cc3CC(=O)N([C@H](C)CO)C[C@@H]2C)cc1
i	CNC[C@H]1Oc2ccc(NS(=O)(=O)c3ccc(C)cc3)cc2CC(=O)N([C@H](C)CO)C[C@@H]1C
i	CC(C)C#Cc1ccc([C@@H]2[C@@H](C#N)N(C(=O)CN(C)C)[C@H]2CO)cc1
i	COC(=O)C[C@@H]1CC[C@H]2[C@@H](COc3ccc(NC(=O)c4cscn4)cc3C(=O)N2C)O1
i	CO[C@@H]1CN(C)C(=O)c2cc(NC(=O)C3CCCC3)ccc2OC[C@H](C)NC[C@@H]1C
i	NCC[C@@H]1CC[C@@H](NC(=O)Nc2ccc(F)cc2)[C@H](CO)O1
i	COc1ccc(CN(C)C[C@@H]2OCCCC[C@H](C)Oc3ccc(NS(=O)(=O)c4ccc(OC)cc4)cc3C(=O)N([C@H](C)CO)C[C@H]2C)cc1
i	C[C@@H]1CN([C@H](C)CO)C(=O)c2cc(C#CC3(O)CCCC3)cnc2O[C@H]1CN(C)S(C)(=O)=O
i	C[C@@H]1CCCCO[C@H](CN(C)C(=O)Nc2ccc3c(c2)OCO3)[C@@H](C)CN([C@@H](C)CO)C(=O)c2cc(NC(=O)c3ccncc3)ccc2O1
i	Cn1cnc(S(=O)(=O)N2CCCCN3[C@H](CO)[C@H](c4ccc(-c5ccccc5F)cc4)[C@@H]3C2)c1
i	C/C=C/c1ccc([C@@H]2[C@@H](CO)N3C(=O)CN(C(=O)Nc4ccc(F)cc4)C[C@@H]23)cc1
i	Cc1noc(C)c1NC(=O)N(C)C[C@@H]1OCCCC[C@H](C)Oc2ccc(NC(=O)Cc3ccccc3)cc2C(=O)N([C@H](C)CO)C[C@@H]1C
i	COCC(=O)N1C[C@H]2[C@@H](c3ccccc31)[C@H](CO)N2Cc1cc(F)ccc1F
i	C[C@@H]1CCCCO[C@H](CN(C)C)[C@@H](C)CN([C@H](C)CO)C(=O)c2cc(NC(=O)c3ccccc3)ccc2O1
i	COc1ccc(C(=O)Nc2ccc3c(c2)C(=O)N(C)C[C@H](OC)[C@H](C)CN(C)[C@@H](C)CO3)cc1
i	CC(C)NC(=O)Nc1ccc2c(c1)C(=O)N([C@H](C)CO)C[C@H](C)[C@H](CN(C)Cc1ccc(C(=O)Nc3ccccc3N)cc1)OCCCC[C@@H](C)O2
i	Cc1ccccc1S(=O)(=O)N[C@H]1CC[C@@H](CCNS(=O)(=O)c2cccc(F)c2)O[C@H]1CO
i	CC(=O)N(C)C[C@H]1Oc2ncc(-c3cccc(C#N)c3)cc2C(=O)N([C@@H](C)CO)C[C@@H]1C
i	COc1ccc(CN(C)C[C@@H]2Oc3c(NC(=O)C4CCCCC4)cccc3C(=O)N([C@@H](C)CO)C[C@H]2C)cc1
i	C[C@@H]1CN([C@H](C)CO)C(=O)Cc2cc(NC(=O)Nc3ccc(C(F)(F)F)cc3)ccc2O[C@H]1CN(C)S(=O)(=O)c1cn(C)cn1
i	CC(C)C[C@@H]1NC(=O)[C@H]2C[C@@H](C(=O)NCc3ccc(F)cc3)[C@@H](c3cccc(OCCO)c3)N2C1=O
i	O=C(C[C@H]1CC[C@H]2[C@@H](COC[C@H](O)CN2Cc2cc(F)cc(F)c2)O1)NC1CCCC1
i	O=C([C@@H]1[C@@H](CO)[C@@H]2Cn3c(ccc(/C=C/c4ccccc4)c3=O)[C@H]1N2)N1CCCCC1

In another format: entries from further up.
CNC[C@H]1Oc2ccc(NS(=O)(=O)c3ccc(C)cc3)cc2CC(=O)N([C@H](C)CO)C[C@@H]1C
  FGF22 binding: i
CC(C)C#Cc1ccc([C@@H]2[C@@H](C#N)N(C(=O)CN(C)C)[C@H]2CO)cc1
  FGF22 binding: i
COC(=O)C[C@@H]1CC[C@H]2[C@@H](COc3ccc(NC(=O)c4cscn4)cc3C(=O)N2C)O1
  FGF22 binding: i

Remaining list, next part:
FGF22 binding	Structure
i	COc1ccc(S(=O)(=O)N(C)C[C@@H]2OCCCC[C@H](C)Oc3ccc(NS(=O)(=O)c4ccc(F)cc4)cc3C(=O)N([C@H](C)CO)C[C@H]2C)cc1
i	COc1ccc(CN(C)C[C@@H]2Oc3ccc(NC(=O)NC4CCCCC4)cc3CC(=O)N([C@@H](C)CO)C[C@@H]2C)cc1
i	O=C(N[C@@H]1CC[C@H](CCNS(=O)(=O)c2ccccc2)O[C@@H]1CO)c1cnccn1
i	C[C@H](CO)N1C[C@H](C)[C@H](CN(C)Cc2ccc3c(c2)OCO3)Oc2ccc(NC(=O)CCCN(C)C)cc2C1=O
i	O=C(C[C@@H]1C[C@H]2c3cc(NC(=O)CC4CC4)ccc3O[C@H]2[C@@H](CO)O1)NCC(F)(F)F
i	C[C@@H]1CN([C@H](C)CO)C(=O)c2cc(NC(=O)C3CC3)ccc2O[C@H]1CN(C)S(=O)(=O)c1cn(C)cn1
i	COc1ccc(C#Cc2ccc3c(c2)O[C@H](CN(C)C)[C@@H](C)CN([C@@H](C)CO)S3(=O)=O)cc1
i	CNC[C@@H]1Oc2ccc(NC(=O)Nc3ccc(C(F)(F)F)cc3)cc2CC(=O)N([C@H](C)CO)C[C@@H]1C
i	COc1cccc(S(=O)(=O)N2CCCCN3[C@H](CO)[C@@H](c4ccc(-c5cncnc5)cc4)[C@H]3C2)c1
i	C[C@@H]1CN([C@@H](C)CO)C(=O)c2c(c3ccccc3n2C)-c2ccccc2CO[C@H]1CN(C)Cc1ccc2c(c1)OCCN2C
i	C[C@H]1CN([C@@H](C)CO)C(=O)c2cc(NS(C)(=O)=O)ccc2O[C@@H]1CN(C)C(=O)Nc1ccccc1
i	CC(C)NC(=O)Nc1ccc2c(c1)C(=O)N([C@H](C)CO)C[C@@H](C)[C@@H](CN(C)Cc1ccc(C(=O)O)cc1)OCCCC[C@@H](C)O2
i	O=C(C[C@@H]1CC[C@H](NS(=O)(=O)c2ccc(F)cc2)[C@H](CO)O1)N1CCc2ccccc2C1
i	CCNC(=O)[C@@H]1[C@@H](CO)[C@@H]2Cn3c(ccc(-c4ccc(F)cc4)c3=O)[C@H]1N2C(=O)C1CC1
i	COc1ccc(S(=O)(=O)Nc2ccc3c(c2)C(=O)N([C@@H](C)CO)C[C@@H](C)[C@@H](CN(C)S(=O)(=O)c2cccs2)O3)cc1
i	O=C(Cc1ccccc1)N1CC2(C1)[C@H](c1ccccc1)[C@H](CO)N2C(=O)Cc1ccccc1
i	COC(=O)c1cc2c(c3c4cc(C)ccc4n(S(=O)(=O)c4ccc(C)cc4)c13)C(=O)N(Cc1ccc(C(F)(F)F)cc1)C2
i	CO[C@H]1CN(C)C(=O)c2ccc(NC(C)=O)cc2OC[C@@H](C)N(CC2CC2)C[C@@H]1C
i	Cc1ccc(S(=O)(=O)Nc2ccc3c(c2)C(=O)N([C@@H](C)CO)C[C@@H](C)[C@H](CN(C)S(=O)(=O)c2ccccc2)O3)cc1
i	COc1ccc(NC(=O)N2CCCCN3[C@H](C2)[C@@H](c2ccc(C#CCC(C)C)cc2)[C@@H]3CO)cc1
i	C[C@H]1CCCCO[C@H](CN(C)C(=O)Nc2ccc(C(F)(F)F)cc2)[C@@H](C)CN([C@@H](C)CO)C(=O)c2cc(NS(C)(=O)=O)ccc2O1
i	O=C(C[C@H]1CC[C@@H](NC(=O)NC2CCCCC2)[C@@H](CO)O1)NCc1ccc(Cl)cc1
i	C[C@H]1CN([C@@H](C)CO)C(=O)c2cc(/C=C/c3ccccc3)cnc2O[C@@H]1CN(C)C(=O)C1CCCCC1
i	CO[C@H](CN(C)C(=O)Nc1ccc(Cl)cc1)[C@@H](C)CN(Cc1ccccc1Cl)[C@@H](C)CO
i	CO[C@@H]1CN(C)C(=O)c2cc(NC(=O)NC3CCCCC3)ccc2OC[C@@H](C)N(CC2CCOCC2)C[C@H]1C
i	CO[C@@H]1CN(C)C(=O)c2ccc(NS(C)(=O)=O)cc2OC[C@H](C)N(Cc2cncnc2)C[C@H]1C
i	C[C@@H]1CN([C@@H](C)CO)C(=O)Cc2cc(NC(=O)Cn3cnnn3)ccc2O[C@@H]1CN(C)Cc1ccc(Cl)c(Cl)c1
i	CN(C)C(=O)c1ccc(-c2ccc([C@@H]3[C@H]4CN(C(=O)CC5CC5)CC(=O)N4[C@H]3CO)cc2)cc1
i	C[C@@H]1CN([C@@H](C)CO)C(=O)c2cc(NS(=O)(=O)c3cccs3)ccc2O[C@H]1CN(C)CC1CC1
i	O=C(N[C@@H]1CC[C@@H](CCNC(=O)C2CC2)O[C@@H]1CO)c1ccccn1
i	COc1ccccc1-c1ccc2c(c1)O[C@H](CN(C)C(=O)c1ccccc1)[C@@H](C)CN([C@@H](C)CO)S2(=O)=O
i	O=C(NCC[C@H]1CC[C@@H](NC(=O)c2ccc3c(c2)OCO3)[C@@H](CO)O1)Nc1ccc(Cl)cc1
i	C[C@@H]1CN([C@@H](C)CO)C(=O)Cc2cc(NC(=O)Nc3ccc(C(F)(F)F)cc3)ccc2O[C@H]1CN(C)Cc1ccc(Oc2ccccc2)cc1
i	COc1ccccc1CNC(=O)C[C@H]1CC[C@H](NC(=O)CC2CC2)[C@@H](CO)O1
i	CCCC#Cc1ccc2c(c1)O[C@@H](CN(C)C(=O)c1ccncc1)[C@@H](C)CN([C@@H](C)CO)S2(=O)=O
i	CC(C)NC[C@@H]1[C@@H](c2ccc(C3=CCCCC3)cc2)[C@H](CO)N1C(=O)NC(C)C
i	CO[C@@H]1CN(C)C(=O)c2cc(NC(C)=O)ccc2OC[C@H](C)N(C(=O)CC2CC2)C[C@H]1C
i	CN(C)C(=O)c1cccc(-c2ccccc2[C@@H]2[C@@H](CO)N(C(=O)C3CCCCC3)[C@H]2C#N)c1
i	C[C@@H]1CN([C@H](C)CO)C(=O)c2cc(C3=CCCC3)cnc2O[C@@H]1CN(C)C(=O)Nc1cccc(F)c1
i	O=C(C[C@@H]1CC[C@H](NC(=O)CN2CCOCC2)[C@@H](CO)O1)NC1CCC1
i	O=C(C[C@H]1CC[C@H]2[C@@H](COC[C@@H](O)CN2CCC(F)(F)F)O1)N1CCC(Cc2ccccc2)CC1
i	C[C@H](CO)N1C[C@H](C)[C@H](CN(C)Cc2ccccc2)Oc2cc(-c3ccncc3)ccc2S1(=O)=O
i	C[C@H](CO)N1C[C@H](C)[C@@H](CN(C)Cc2ccc(Oc3ccccc3)cc2)Oc2ccc(NC(=O)Nc3ccc4c(c3)OCO4)cc2C1=O
i	COCC(=O)N(C)C[C@H]1Oc2ncc(C#C[C@H](C)O)cc2C(=O)N([C@H](C)CO)C[C@H]1C
i	C[C@@H]1CCCCO[C@H](CN(C)S(C)(=O)=O)[C@@H](C)CN([C@@H](C)CO)C(=O)c2cc(NC(=O)C3CCCCC3)ccc2O1
i	CC(C)N(Cc1ccccc1)S(=O)(=O)c1n[nH]c(C(C)(C)C)n1
i	O=C(CC1CC1)N[C@@H]1CC[C@@H](CCNS(=O)(=O)c2ccc(Cl)cc2)O[C@H]1CO
i	C[C@H]1CN([C@@H](C)CO)C(=O)Cc2cc(NC(=O)Nc3ccc(C(F)(F)F)cc3)ccc2O[C@H]1CN(C)Cc1ccc(C(=O)O)cc1
i	C[C@H](CO)N1C[C@H](C)[C@H](CN(C)C(=O)Cc2ccccc2)OCCCC[C@H](C)Oc2ccc(NS(=O)(=O)c3cccs3)cc2C1=O
i	O=C(C[C@H]1CC[C@@H](NC(=O)CN2CCOCC2)[C@H](CO)O1)NCc1cccc(F)c1

Three of the compounds above, tab-delimited.
structure	FGF22 binding
COC(=O)C[C@@H]1CC[C@H]2[C@@H](COc3ccc(NC(=O)c4cscn4)cc3C(=O)N2C)O1	i
NCC[C@@H]1CC[C@@H](NC(=O)Nc2ccc(F)cc2)[C@H](CO)O1	i
O=C(NCC[C@H]1CC[C@@H](NC(=O)c2ccc3c(c2)OCO3)[C@@H](CO)O1)Nc1ccc(Cl)cc1	i

Further compounds
FGF22 binding	Structure
i	CCCNC(=O)N(C)C[C@@H]1Oc2ncc(C#C[C@@H](C)O)cc2C(=O)N([C@H](C)CO)C[C@@H]1C
i	C[C@@H](O)C#Cc1ccc2c(c1)O[C@H](CN(C)C(=O)Cc1ccccn1)[C@@H](C)CN([C@@H](C)CO)S2(=O)=O
i	C[C@@H]1CN([C@H](C)CO)C(=O)c2cccc(NS(=O)(=O)c3cccs3)c2O[C@H]1CN(C)S(=O)(=O)c1ccc(Cl)cc1
i	COc1ccc(NC(=O)Nc2ccc3c(c2)C(=O)N([C@@H](C)CO)C[C@@H](C)[C@@H](CN(C)C(=O)NC(C)C)OCCCC[C@@H](C)O3)cc1
i	C[C@@H]1CN([C@H](C)CO)C(=O)Cc2cc(NC(=O)C3CCCCC3)ccc2O[C@H]1CN(C)C(=O)Nc1ccccc1
i	O=C(N[C@@H]1CC[C@H](CCNS(=O)(=O)c2cccc(Cl)c2)O[C@H]1CO)c1ccncc1
i	C[C@@H]1CN([C@@H](C)CO)C(=O)Cc2cc(NS(=O)(=O)c3ccc(Cl)cc3)ccc2O[C@H]1CN(C)CC1CCCCC1
i	CCCC#Cc1ccc2c(c1)O[C@@H](CN(C)Cc1cncnc1)[C@H](C)CN([C@H](C)CO)S2(=O)=O
i	CNC[C@H]1Oc2cc(C#Cc3ccc(F)cc3)ccc2S(=O)(=O)N([C@@H](C)CO)C[C@H]1C

Not all compounds are listed, so the mix of outcomes need not match the whole.
